High-throughput results (PubChem BioAssay)
Ecoli growth = blocks Escherichia coli growth; 0.21% of 330,000 active; OD600, 23 h; stronger effect = lower value; OD600 absorbance (no concentration beside the values); AID 1053175;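 active means OD600 absorbance below the run mean of sample wells minus 3.6 SD, in any replicate, cut at about 0.56 in these data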;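 further: stock transfer was 300 nL into about 60 µL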
MLL AF4-AF9 inh = blocks AF4 peptide binding to human AF9; inhibition, % at 10 µM; AlphaScreen, biotin-AF4 peptide binding to FLAG-AF9; P42568; 0.47% of 350,000 active;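 active means every replicate reaching a set inhibition limit, whatever the replicate mean, cut at about 25% in these data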;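 further: 0% = plate neutral control median and 100% = total signal loss; the record names both 10 and 1 µM as test concentration; the first replicate is given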
Target sequence (P42568 whole entry, looked up): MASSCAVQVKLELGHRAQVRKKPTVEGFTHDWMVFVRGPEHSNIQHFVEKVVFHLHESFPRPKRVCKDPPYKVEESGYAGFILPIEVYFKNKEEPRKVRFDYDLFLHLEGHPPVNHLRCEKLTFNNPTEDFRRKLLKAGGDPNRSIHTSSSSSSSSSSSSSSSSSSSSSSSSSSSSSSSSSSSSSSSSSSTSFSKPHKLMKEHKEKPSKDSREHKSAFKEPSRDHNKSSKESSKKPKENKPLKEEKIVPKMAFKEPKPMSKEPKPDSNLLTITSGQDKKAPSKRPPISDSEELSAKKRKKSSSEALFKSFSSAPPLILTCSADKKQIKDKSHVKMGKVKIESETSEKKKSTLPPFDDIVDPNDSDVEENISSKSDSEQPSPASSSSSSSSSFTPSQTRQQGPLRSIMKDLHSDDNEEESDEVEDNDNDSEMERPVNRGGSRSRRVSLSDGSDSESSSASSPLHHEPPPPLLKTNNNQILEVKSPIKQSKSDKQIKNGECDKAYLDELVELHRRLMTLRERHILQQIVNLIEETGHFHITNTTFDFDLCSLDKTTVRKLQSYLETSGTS
ALR inh = inhibitors of human sulfhydryl oxidase ALR. P55789. purified ALR, DTT oxidation, H2O2 HRP-luminol luminescence. inhibition, % (concentration not given with the values). 3.8% of 290,000 active;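 active means mean and each replicate at 75% or more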;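 further: stock transfer was 7.5 nL into about 7.5 µL; 0% = neutral wells and 100% = wells with inactivated enzyme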
Target sequence (P55789 whole entry, looked up): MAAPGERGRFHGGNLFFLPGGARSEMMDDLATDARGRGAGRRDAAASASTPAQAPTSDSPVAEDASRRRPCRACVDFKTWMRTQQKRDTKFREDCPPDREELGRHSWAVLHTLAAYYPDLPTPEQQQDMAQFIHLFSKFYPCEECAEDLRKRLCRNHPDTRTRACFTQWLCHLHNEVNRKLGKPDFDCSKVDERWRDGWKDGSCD
Ecoli rRNA inh = inhibits bacterial ribosomal RNA function over humanized ribosomes; E. coli WT GFP vs humanized-ribosome RFP mutants, fluorescence, 24 h; stronger effect = lower value; DMSO median 0, no signal -100; GFP signal change (wild-type ribosome), % (test concentration not listed); 1.6% of 350,000 active; AID 720706;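 active means significant combined selectivity score with lowered wild-type GFP, culture density cut under 30%, mutant RFP and density less affected; inactive means any of these conditions unmet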; further: one replicate is shown; some compounds called inactive have numbers as strong as hits
Vif TR-FRET = inhibitors of Vif binding to APOBEC3G peptide, primary screen, biochemical, TR-FRET, GST-Vif 1-94, biotin-A3G peptide, dose response retest (AID 1117319). TR-FRET GST-Vif / biotin-A3G peptide binding; higher % means a stronger effect; test concentration not given here; strong numbers were not always called active. inhibition, %, or IC50 in µM where a hit was titrated. 0.57% of 260,000 active;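 active means above the screen mean plus three standard deviations and confirmed in dose response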;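 further: Vif residues 1-94 fused to GST binding biotinylated APOBEC3G peptide 110-148; 0% = full assay without inhibitor and 100% = GST in place of GST-Vif; retest series ran down from 100 µM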
FGF22 binding = shifts melting point of recombinant human FGF22. recombinant FGF22 thermal shift, SYPRO orange fluorescence; percent of sucrose octasulfate shift, DMSO zero. AID 651658. 1.5% of 340,000 active. calls only at 9.99 µM. Q9HCT0;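 active means melting point raised past a set limit in the mean and every replicate; three in four hits are not shown here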
Target sequence (Q9HCT0 whole entry, looked up): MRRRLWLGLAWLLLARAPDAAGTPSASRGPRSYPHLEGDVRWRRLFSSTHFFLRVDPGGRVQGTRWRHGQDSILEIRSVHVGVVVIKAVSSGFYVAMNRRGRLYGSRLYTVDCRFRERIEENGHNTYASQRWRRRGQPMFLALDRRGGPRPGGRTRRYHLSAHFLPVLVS
HNF4A DNA FP = change in binding of human HNF4 alpha to DNA; HNF4a-FITC DNA binding, fluorescence polarization, 1 h; activity change, % at 10 µM; 0.3% of 360,000 active; P41235; in the data active means activity change above about 30%, passing the limit was not always enough;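 further: controls were the assay level and a saturating level of protein; the project sought stronger binding though the title names inhibitors; some compounds called inactive have numbers as strong as hits; positive values seem to mean higher polarization but the record does not say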
Ecoli rRNA inh OD600 = recorded beside Ecoli rRNA inh, whose call it bears; OD600 change, %; measured here: OD600 growth;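 optical density of the mix in the first replicate; 0 = DMSO median and -100 = no signal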
Ecoli rRNA inh RFP = second read-out of Ecoli rRNA inh, no call of its own (marks repeat the call); RFP signal change, %; measured here: RFP humanized mutant strains;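 first replicate; 0 = DMSO median and -100 = no signal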
Starred values were filed as active, the others as inactive; i = inactive; / = no result given; & = joins results of further samples. Not all compounds are listed. The share of hits here may be higher or lower than overall.

SMILES	Ecoli growth	MLL AF4-AF9 inh	ALR inh	Ecoli rRNA inh	Ecoli rRNA inh OD600	Ecoli rRNA inh RFP	Vif TR-FRET	FGF22 binding	HNF4A DNA FP
O=C(C[C@H]1C=C[C@H](NC(=O)Nc2ccc(C(F)(F)F)cc2)[C@@H](CO)O1)NCc1ccccn1	/	-1.5	/	-2	1	1.5	/	i	/
CCOC(=O)c1oc2ccccc2c1NC(=O)c1ccc(S(=O)(=O)N(C)C)cc1	0.67	/	0	/	/	/	-8%	/	0.6
Cc1noc(C)c1NC(=O)N[C@H]1CC[C@H](CC(=O)Nc2ccccc2)O[C@H]1CO	/	-1.2	/	-2	-6	6.0	/	i	/
CC(=O)c1cccc(Nc2ccc(C#N)cc2)c1	/	-13	/	-5	-8	-3.8	/	i	4.3
COc1ccc(CN(C)C[C@H]2Oc3ccc(NC(=O)CCN4CCOCC4)cc3CC(=O)N([C@H](C)CO)C[C@@H]2C)cc1	/	0.6	/	2	-3	-2.4	/	i	/
COC(=O)c1ccc(NC(=S)NCc2ccco2)cc1	0.65	2.4	-4	-10	-4	-2.2	-3%	i	5.3
O=C(NC1CCCc2c1cnn2-c1cc(F)cc(F)c1)c1cc[n+]([O-])cc1 (centres undefined)	0.71	-0.7	2	-24	-38	-6.1	/	i	1.8
C[C@H]1CN([C@@H](C)CO)S(=O)(=O)c2ccc(C#CCN(C)C)cc2O[C@@H]1CN(C)Cc1ccccn1	/	0.5	/	-3	3	-1.6	/	i	/
COc1ccccc1NC(=O)CNC(=O)c1ccccc1C	0.74	/	-5	/	/	/	6%	/	-2.4
C[C@@H]1CN([C@H](C)CO)C(=O)CCCn2cc(nn2)CO[C@H]1CN(C)C(=O)Cc1ccccc1	/	-1.0&1.8	/	-2	7	-0.7	-2%	i	-2.1
CCCNC(=O)C1(C)CCCN(C(=O)c2cccnc2Oc2ccccc2)C1 (centres undefined)	/	0.1	/	5	20	1.0	/	i	5.4
Cc1cc(C)n2c(Nc3ccc4c(c3)OCCO4)c(C(C)C)nc2n1	/	5.1	/	1	11	-0.9	/	i	-0.5
CCOC(=O)N1CCN(C(=O)CNC(=O)c2nn(-c3ccc(OC)c(Cl)c3)c(=O)c3ccccc23)CC1	0.65	2.8	-5	2	14	0.1	/	i	0.3
CC1=C(C(=O)OC(C)C)C(c2ccc3c(c2)OCO3)NC(=O)N1 (centres undefined)	0.71	4.3	-4	0	5	-0.3	-4%	i	3.1
CC(C)Cn1c(=O)c(C(=O)Nc2ccccc2S(N)(=O)=O)c(O)c2ccccc21	0.72	-3.9	-1	2	14	-2.1	-7%	i	2.7
C[C@H](CO)N1C[C@H](C)[C@H](CN(C)Cc2ccccc2)Oc2ccc(NC(=O)c3ccncc3)cc2C1=O	/	3.0	/	-2	-4	-3.4	/	i	/
CCN1C[C@@H]2[C@@H]3C(=O)N(Cc4ccccc4)C(=O)[C@@H]3[C@](CC)(C1=O)N2C(=O)c1ccc(C(F)(F)F)cc1	/	/	-2	-6	-9	1.5	/	i	1.8
COc1ccccc1C(=O)Nc1ccc2c(c1)C(=O)N(C)[C@H]1CC[C@@H](CC(=O)NCc3ccc(Cl)c(Cl)c3)O[C@@H]1CO2	/	-2.4	/	-20	-32	6.7	/	i	/
CCCOc1ccc(OCCNC2CCCC2)cc1	0.66	/	/	/	/	/	8%	/	0.8
CCc1c(C)sc2nc3c(C(=O)N4CCOCC4)cc(C(=O)c4cc(F)ccc4O)cn3c(=O)c12	0.74	16	-1	10	3	0.6	-5%	i	12
Cc1csc(=Nc2c(C)n(C)n(-c3ccccc3)c2=O)n1-c1ccccc1	0.65	-1.1	62	10	15	4.2	-3%	i	1.7
CCSc1ncc(Cl)c(C(=O)Nc2ccc(S(=O)(=O)Nc3onc(C)c3C)cc2)n1	0.69	/	1	/	/	/	9%	/	1.2
CCCn1c2ccccc2c2cnn(CC(=O)N3CCN(C4CCCCC4)CC3)c(=O)c21	0.67	/	3	/	/	/	/	/	3.4
Cc1ccc(S(=O)(=O)Nc2ccc3c(c2)CC(=O)N([C@@H](C)CO)C[C@H](C)[C@H](CN(C)C(=O)NC2CCCCC2)O3)cc1	/	3.5	/	1	12	0.5	/	i	/
CCOC(=O)c1sc2nc(C)nc(NCc3ccc(F)cc3)c2c1C	0.66	-1.5	-4	-5	-26	-0.6	-8%	i	3.6
CC(C)N1C(=O)c2ccccc2NC(=O)C1C(=O)NC1CC1 (centres undefined)	/	/	/	3	0	-0.2	/	i	6.5
CNC[C@@H]1Oc2cc(-c3cccc(F)c3)ccc2S(=O)(=O)N([C@@H](C)CO)C[C@H]1C	/	1.4	/	-4	-4	-4.3	/	i	/
CCOC(=O)Cn1c(=O)c(-c2ccccc2NC)nc2ccccc21	0.76	/	17	/	/	/	-1%	/	1.9
COc1cccc(-n2cnnn2)c1	0.66	/	/	/	/	/	-3%	/	0.3
COc1ccccc1CNCC(=O)Nc1ccc(N(C)C)cc1	0.64	11	/	3	-7	-6.2	-6%	i	2.7
C[C@H](NC(=O)c1nc[nH]c1C(=O)NCc1ccccc1)C(=O)OCc1ccccc1	/	1.4	-2	-27	-45	2.2	/	i	-3.0
CCC(=O)N1[C@H](CO)[C@H]2c3ccccc3N(S(=O)(=O)c3ccccc3C)C[C@H]21	/	-0.8	/	-1	2	-1.1	/	i	/
COC(=O)Cc1ccc(NC(=S)Nc2cccc(C)n2)cc1	0.66	-2.9	-1	-6	-1	0.4	-4%	i	5.1
CC(=O)c1sc(C(=O)O)c(-c2ccco2)c1-c1ccco1	0.67	-1.9	-1	-4	-16	6.9	9.8µM*	i	-13
COc1cccc(C(C)(O)c2nc(-c3cnc4ccccc4c3)cs2)c1 (centres undefined)	/	-1.3	/	-9	-27	-1.3	/	i	3.5
CC1CCCCC1NC(=O)CCS(=O)(=O)c1ccc(Cl)cc1 (centres undefined)	0.7	0.0	7	3	-2	-2.8	/	i	0.8
CCOC(=O)c1sc2nc(CC(=O)OC)nc(NCc3ccc(F)cc3)c2c1C	0.66	/	-8	/	/	/	-3%	/	-2.9
COc1ccc(CNS(=O)(=O)c2cn(C)c(=O)n(C)c2=O)cc1	0.67	-1.7	-5	12	15	7.6	2%	i	0.5
O=C(CSc1ccc(F)cc1)Nc1ccc(Br)cc1	0.65	-1.0	-7	-60	-73	-3.8	-5%	i	2.6
CCOc1ccc2nc(NCCNS(=O)(=O)c3ccccc3)c(C#N)cc2c1	0.74	/	-9	-2	1	-2.6	4%	/	-0.1
Cc1ccc(NC(=O)C2(N(C(=O)Cn3nnnc3N)c3ccc(C)cc3)CCCCC2)cc1	0.65	/	/	/	/	/	0%	/	-1.9
O=C(CSCc1cc(=O)n2ccsc2n1)Nc1ccc(F)cc1	0.67	-1.7	7	10	11	-0.5	4%	i	-0.7
CC(=O)Nc1ccc(OCC(O)Cn2cccn2)cc1 (centres undefined)	0.7	0.2	17	1	-1	-2.3	-7%	i	2.0
CSc1ccccc1NC(=O)c1ccc(N2CCCC2=O)cc1	0.62	-4.0	-8	-1	2	-3.6	-2%	i	1.7
COCCn1c(N)c(S(=O)(=O)c2cccs2)c2nc3ccccc3nc21	0.71	4.3	4	7	11	10	32%	i	4.8
COc1ccc(C(c2nnnn2CCc2ccccc2)N2CCN(C3CCCC3)CC2)cc1OC (centres undefined)	0.76	/	-2	/	/	/	2%	/	4.1
Cc1cccc(Nc2nc(N)c([N+](=O)[O-])c(NCc3ccccc3)n2)c1	0.69	2.6	/	-14	-24	-6.1	-8%	i	-4.5
CCOc1cc(S(=O)(=O)NCc2ccc3c(c2)OCO3)c(C)cc1C	0.72	/	-18	/	/	/	-3%	/	-4.3
CO[C@H]1CN(C)C(=O)c2cc(NC(=O)C3CC3)ccc2OC[C@H](C)N(C(=O)c2ccncc2)C[C@@H]1C	/	-1.9	/	0	0	0.0	/	i	/
CCCNC(=O)N1[C@H](CO)[C@@H](c2ccccc2)[C@H]1CNC(=O)c1cccc(F)c1	/	-33	/	-11	-10	-2.5	/	i	/
CS(=O)(=O)Nc1ccc2c(c1)[C@@H]1C[C@H](CC(=O)NCC(F)(F)F)O[C@@H](CO)[C@@H]1O2	/	-12	/	7	4	-3.2	/	i	/
CC1(Cc2cn(CCC#N)c3ccccc23)OCCO1	0.7	/	-35	/	/	/	-3%	/	0.8
COc1cccc(C(=O)Nc2ccc3c(c2)C(=O)NC3=O)c1	0.69	0.7	/	5	17	-1.1	/	i	-1.7
CC(=O)Nc1cccc(-n2nnc(SCC(=O)N(C)c3ccccc3)n2)c1	0.67	-7.2	-21	3	-1	-0.3	-4%	i	-0.3
C[C@@H]1CN([C@@H](C)CO)C(=O)c2cc(NC(=O)c3ccncc3)ccc2O[C@@H]1CN(C)C(=O)Nc1ccccc1	/	-3.9	/	2	-1	-2.6	/	i	/

Twelve consecutive records already listed:
SMILES	Ecoli growth	MLL AF4-AF9 inh	ALR inh	Ecoli rRNA inh	Ecoli rRNA inh OD600	Ecoli rRNA inh RFP	Vif TR-FRET	FGF22 binding	HNF4A DNA FP
Cc1ccc(NC(=O)C2(N(C(=O)Cn3nnnc3N)c3ccc(C)cc3)CCCCC2)cc1	0.65	/	/	/	/	/	0%	/	-1.9
O=C(CSCc1cc(=O)n2ccsc2n1)Nc1ccc(F)cc1	0.67	-1.7	7	10	11	-0.5	4%	i	-0.7
CC(=O)Nc1ccc(OCC(O)Cn2cccn2)cc1 (centres undefined)	0.7	0.2	17	1	-1	-2.3	-7%	i	2.0
CSc1ccccc1NC(=O)c1ccc(N2CCCC2=O)cc1	0.62	-4.0	-8	-1	2	-3.6	-2%	i	1.7
COCCn1c(N)c(S(=O)(=O)c2cccs2)c2nc3ccccc3nc21	0.71	4.3	4	7	11	10	32%	i	4.8
COc1ccc(C(c2nnnn2CCc2ccccc2)N2CCN(C3CCCC3)CC2)cc1OC (centres undefined)	0.76	/	-2	/	/	/	2%	/	4.1
Cc1cccc(Nc2nc(N)c([N+](=O)[O-])c(NCc3ccccc3)n2)c1	0.69	2.6	/	-14	-24	-6.1	-8%	i	-4.5
CCOc1cc(S(=O)(=O)NCc2ccc3c(c2)OCO3)c(C)cc1C	0.72	/	-18	/	/	/	-3%	/	-4.3
CO[C@H]1CN(C)C(=O)c2cc(NC(=O)C3CC3)ccc2OC[C@H](C)N(C(=O)c2ccncc2)C[C@@H]1C	/	-1.9	/	0	0	0.0	/	i	/
CCCNC(=O)N1[C@H](CO)[C@@H](c2ccccc2)[C@H]1CNC(=O)c1cccc(F)c1	/	-33	/	-11	-10	-2.5	/	i	/
CS(=O)(=O)Nc1ccc2c(c1)[C@@H]1C[C@H](CC(=O)NCC(F)(F)F)O[C@@H](CO)[C@@H]1O2	/	-12	/	7	4	-3.2	/	i	/
CC1(Cc2cn(CCC#N)c3ccccc23)OCCO1	0.7	/	-35	/	/	/	-3%	/	0.8
